RecA intein inh – Mtb RecA intein splicing inhibitors, primary screen, biochemical, fluorescence, HTS; Protein RecA (Mycobacterium tuberculosis (strain ATCC 25618 / H37Rv)), P9WHJ3; cell-free RecA intein splicing; inhibition, %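 (about 9 µM by stock and volumes)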; hit rate 0.75% among 290,000; AID 2221, 2009; in the data active means inhibition above about 30%; inconclusive means no clear call, values can overlap the other calls;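 further: 0% = vehicle wells and 100% = reference inhibitor control wells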
Target sequence (P9WHJ3 whole entry, looked up): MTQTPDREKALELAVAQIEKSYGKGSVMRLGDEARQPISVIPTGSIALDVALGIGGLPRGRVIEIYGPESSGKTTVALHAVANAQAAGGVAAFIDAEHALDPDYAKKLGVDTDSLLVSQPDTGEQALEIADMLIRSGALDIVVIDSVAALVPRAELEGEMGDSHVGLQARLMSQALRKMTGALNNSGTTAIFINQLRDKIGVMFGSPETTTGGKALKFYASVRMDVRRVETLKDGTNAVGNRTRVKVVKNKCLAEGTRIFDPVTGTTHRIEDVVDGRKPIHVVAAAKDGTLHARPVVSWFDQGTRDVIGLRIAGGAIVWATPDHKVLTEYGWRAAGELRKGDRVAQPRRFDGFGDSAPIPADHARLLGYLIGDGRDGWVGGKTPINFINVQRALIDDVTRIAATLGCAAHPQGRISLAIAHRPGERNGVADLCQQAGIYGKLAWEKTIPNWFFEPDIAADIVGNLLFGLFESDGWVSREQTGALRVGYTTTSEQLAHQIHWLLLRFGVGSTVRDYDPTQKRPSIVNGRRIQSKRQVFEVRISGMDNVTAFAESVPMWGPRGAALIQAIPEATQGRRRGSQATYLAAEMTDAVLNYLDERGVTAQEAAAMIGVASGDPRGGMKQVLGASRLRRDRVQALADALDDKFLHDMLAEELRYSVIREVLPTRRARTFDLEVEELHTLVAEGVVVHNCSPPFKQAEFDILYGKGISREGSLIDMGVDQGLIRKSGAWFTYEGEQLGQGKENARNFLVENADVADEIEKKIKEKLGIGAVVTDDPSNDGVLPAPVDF
Mtb growth – M. tuberculosis H37Rv growth inhibitors, H37Rv strain (AID 1626); M. tuberculosis H37Rv growth inhibition; higher % means a stronger effect; hit rate 0.95% among 220,000; inhibition, % at 10 µM, or IC50 in µM where a hit was titrated;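 active means confirmed in a dose series; inconclusive means inhibition above 80% but not taken into the dose series; inactive means below 80% or under 30% at every dose of the series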;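 further: bacteria incubated seven days before Alamar blue readout; 0% = bacteria only wells and 100% = bacteria with antibiotic wells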
YopH PTP inh – YopH tyrosine phosphatase inhibitors, primary screen, biochemical, fluorescence Ex485/Em525; inhibition, %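 (about 10 µM by stock and volumes)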; YopH tyrosine phosphatase [Yersinia enterocolitica]; hit rate 0.16% among 140,000;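 active means inhibition of 50% or more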;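 further: controls were vehicle for no effect and minimum signal wells for full effect; inactives centre near -20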
Arbovirus inh – antivirals against arbovirus infection, primary screen, cell-based, full library, 10K replicate subset; arbovirus infection cell-based antiviral screen; AID 1251, 2008; hit rate 0.37% among 200,000; inhibition, % at 10 µM;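 active means inhibition from about 30%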;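 further: bluetongue infection of BSR cells; cell survival read as ATP light after 72 h; 0% = infected wells without compound and 100% = uninfected wells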
Mtb betalactam – beta-lactam sensitization of Mtb H37Rv, H37Rv; hit rate 0.27% among 330,000; inhibition, % at 25 µM; M. tuberculosis H37Rv growth with meropenem, percent inhibition; hits of this screen are not shown here;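 active means about 74% or more and at least 40 points above the plate without the antibiotic, then above 30% in a dose series; inconclusive means first-round hits that could not be retested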;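 further: growth measured after seven days incubation then overnight dye step; 0% = bacteria only wells and 100% = bacteria with antibiotic; twin plates without the antibiotic show which effects depend on it; some results filed as inactive read as strong as hits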
Arbovirus inh repeat – further read-out of Arbovirus inh, marked with its call; inhibition, %; measured here: 10K subset replicate screen; many hits read low in the repeat;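 first of two repeat runs on a subset; 0% = infected and 100% = uninfected wells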
The depositor's hits bear a star; ? = inconclusive; nt = no result given. These rows are one share of the data, so the mix of outcomes need not match the whole.

SMILES	RecA intein inh	Mtb growth	YopH PTP inh	Arbovirus inh	Mtb betalactam	others
O=C(CN1C(=O)COc2ccccc21)N(CCCN1CCOCC1)CC1CC=CCC1 (stereo not drawn)	0.8	-2%	-46	3	-8
Cc1nc2ccccc2c(=O)n1-c1ccc(F)c(NS(=O)(=O)c2ccccc2F)c1	0.4	nt	nt	nt	-8
c1ccc2[nH]c(N3CCOCC3)nc2c1	-3.8	4%	3	4	-10
Cc1ccccc1C(=O)NC(CC(C)C)C(=O)Nc1ccc(S(N)(=O)=O)cc1 (stereo not drawn)	2.7	-4%	nt	-2	-8
COc1ccc(C)cc1S(=O)(=O)N1CCC(C(=O)N2CCN(C)CC2)CC1	-1.7	25%	-16	5	0
COc1cc(NC(=O)COC(=O)/C=C/c2c(C)nn(C3CCS(=O)(=O)C3)c2Cl)cc(OC)c1OC (stereo not drawn)	-1.5	-17%	-10	-9	3
CC[N+](C)(CC)CCCOC(=O)C(O)(c1ccccc1)C1CCCCC1 (stereo not drawn)	-1.3	0%	15	3	-5
COc1ccc(/C=C/CN2CCC(Oc3ccc(C(=O)N4CCCCC4)cc3)CC2)cc1	3.7	nt	nt	nt	?
COc1cccc(NC(=O)COC(=O)Cc2ccccc2[N+](=O)[O-])c1	-3.2	9%	nt	13	7
Clc1ccc(SCCCCN2CCOCC2)cc1	0.2	4%	-12	-6	-4
COC(=O)c1ccc(OC)c(-c2c(OC)cc(OC)cc2OC)c1	-1.0	-7%	-40	-3	0
O=C(CSc1nn(-c2ccc(F)cc2)c(=S)s1)NC(=O)NCc1ccco1	0.8	7%	-39	-13	9
Cc1cc(C(=O)CSc2nnc(C3COc4ccccc4O3)n2C)c(C)n1-c1ccc(F)cc1 (stereo not drawn)	9.3	-4%	-43	-13	-12
Nc1ccc2nc3n(c(=O)c2c1)CCC3	-3.0	-1%	-41	5	-11	Arbovirus inh repeat=0
CS(=O)(=O)N(CCc1ccccc1)CC(=O)Nc1ccc(OCc2ccccc2)cc1	5.4	4%	-8	1	18
COC(=O)c1ccc2c(=O)n(CC3CCCO3)c(SCC(=O)Nc3ccccc3OC)nc2c1 (stereo not drawn)	-1.2	-9%	1	0	-9
CC(CC(=O)Nc1ccc(C(N)=O)cc1)c1ccccc1 (stereo not drawn)	1.7	0%	-26	9	-10
CCOc1ccc(CNC(=O)C2Cc3cc(S(=O)(=O)N4CCCCC4)ccc3N2C(C)=O)cc1 (stereo not drawn)	0.9	nt	nt	nt	1
C#CCOCCOCCOCCNc1nc(N2CCOCC2)nc(N2CCN(C(=O)[C@H](Cc3ccc(O)cc3)n3cc([C@@H](N)CC(C)C)nn3)CC2)n1	-1.0	-19%	nt	2	-6
COc1ccc(C2(C)NC(=O)N(CC(=O)NC3(C#N)CCCCC3)C2=O)cc1 (stereo not drawn)	-1.3	nt	nt	nt	-2
Cc1ccc(Cl)cc1NC(=S)N/N=C/c1cccc2ccccc12	3.5	-3%	nt	nt	17
C#CCNc1nc(C(C)C)nc2c1nnn2Cc1ccccc1F	-0.1	nt	-7	-7	-2
COC(CNS(=O)(=O)c1cc2c3c(c1)CCN3C(=O)CC2)OC	-1.2	nt	nt	nt	-2
COc1ccc(CN(CCC#N)C(=S)NC(=O)c2ccccc2)cc1	1.0	?	-25	-22	nt
O=C(NCCC1=CCCCC1)C1CCN(C(=O)c2ccc(Cl)cc2)CC1	1.1	3%	-35	13	1
Going on with the list.
SMILES	RecA intein inh	Mtb growth	YopH PTP inh	Arbovirus inh	Mtb betalactam	others
Cc1ccc(C2=NC(C)(C)N3C2C3c2ccc([N+](=O)[O-])cc2)cc1 (stereo not drawn)	-3.3	7%	-22	-3	-4
COc1ccc(OCCCC(=O)OC(C)C(=O)Nc2cccc(C(C)=O)c2)cc1 (stereo not drawn)	0.3	nt	nt	nt	3
Cc1cc(NC(=O)CSc2n[nH]c(=O)[nH]c2=O)ccc1Br	1.0	-4%	nt	9	-4
Cc1nn(CC(=O)NNC(=S)Nc2ccccc2)c(C)c1[N+](=O)[O-]	-10	-3%	-35	3	-6
COc1nc(N(C)C)nc(-n2nnc(C(C)=O)c2C)n1	3.4	7%	-53	-8	-10
Cc1ccc(S(=O)(=O)Nc2cc(C(=O)N3CCOCC3)ccc2N2CCCCC2)cc1	4.6	-7%	-15	0	-11
COC(=O)c1ccccc1NC(=O)CN(C)S(=O)(=O)c1ccc(OC)c(C)c1	-0.5	-4%	-21	14	1
NS(=O)(=O)c1ccc(CCNC(=O)CCC2COc3ccccc3O2)cc1 (stereo not drawn)	2.8	-10%	-25	4	-2
CCCOc1ccc(/C=N/O)cc1	-1.1	46%	-8	nt	-6
Cc1nc(NC(=O)c2ccccc2)sc1C1(C)CC(c2ccccc2F)=NO1 (stereo not drawn)	5.3	1%	nt	nt	-7
O=C(Nc1cc(S(=O)(=O)N2CCCCC2)ccc1N1CCCCC1)c1ccncc1	5.3	-2%	nt	nt	-8
Cc1cc(CNC(=O)CCc2nnc(CCCc3ccccc3)o2)nn1C	-2.4	1%	nt	5	1
COc1cccc(C(=O)NCCSCc2ccccc2Cl)c1	4.0	nt	nt	nt	-5
CCOC(=O)N1CCN(C(=O)CN(C2CCCCC2)S(=O)(=O)c2ccc(C)cc2)CC1	0.7	-4%	-6	9	-5	Arbovirus inh repeat=7
COc1cc2c(cc1OC)C(c1ccccc1)N(S(C)(=O)=O)CC2 (stereo not drawn)	-0.3	-1%	nt	-1	-3
CC1CCCC(NC(=O)COC(=O)c2ccccc2[N+](=O)[O-])C1C (stereo not drawn)	0.9	3%	nt	3	14
O=[N+]([O-])c1ccc(OCC(O)CN2CCN(c3ccccc3F)CC2)cc1 (stereo not drawn)	-0.2	-2%	-30	11	-8
Cc1cc2cc(CNC(=O)NC3CCCCC3)ccc2n1C	6.4	15%	-45	-34	100
CCCCc1ccc(NC2=NCCCS2)cc1	1.3	nt	nt	nt	47
O=C(O)COc1ccc(/C=C2\SC(=Nc3ccccc3)N(c3ccccc3)C2=O)cc1	3.5	5%	nt	6	7
Cc1nn(C)c(C)c1NC(=O)c1cnn2c(C(F)F)cc(-c3ccccc3)nc12	nt	0%	nt	3	3
COc1ccc(N2CCN(CC(=O)NCc3ccc(Cl)cc3)CC2)cc1	-2.7	nt	nt	nt	-2
N/C(Cc1ccc(Cl)cc1)=N\OC(=O)C1CCCCC1	4.7	-8%	-15	0	4
Cc1ccc(-c2nc(NCc3cccnc3)c3ccccc3n2)cc1	7.0	?	5	22	92
CN(C(=O)C(C)(C)C)C1c2c(ccc3ccccc23)OCC1CO (stereo not drawn)	5.7	nt	nt	nt	3

Entries from the list above containing fluorine (7):
SMILES	RecA intein inh	Mtb growth	YopH PTP inh	Arbovirus inh	Mtb betalactam	others
Cc1nc2ccccc2c(=O)n1-c1ccc(F)c(NS(=O)(=O)c2ccccc2F)c1	0.4	nt	nt	nt	-8
O=C(CSc1nn(-c2ccc(F)cc2)c(=S)s1)NC(=O)NCc1ccco1	0.8	7%	-39	-13	9
Cc1cc(C(=O)CSc2nnc(C3COc4ccccc4O3)n2C)c(C)n1-c1ccc(F)cc1 (stereo not drawn)	9.3	-4%	-43	-13	-12
C#CCNc1nc(C(C)C)nc2c1nnn2Cc1ccccc1F	-0.1	nt	-7	-7	-2
Cc1nc(NC(=O)c2ccccc2)sc1C1(C)CC(c2ccccc2F)=NO1 (stereo not drawn)	5.3	1%	nt	nt	-7
O=[N+]([O-])c1ccc(OCC(O)CN2CCN(c3ccccc3F)CC2)cc1 (stereo not drawn)	-0.2	-2%	-30	11	-8
Cc1nn(C)c(C)c1NC(=O)c1cnn2c(C(F)F)cc(-c3ccccc3)nc12	nt	0%	nt	3	3

(more compounds)
SMILES	RecA intein inh	Mtb growth	YopH PTP inh	Arbovirus inh	Mtb betalactam	others
CS(=O)(=O)N(CC(=O)Nc1ccccc1C(=O)N1CCOCC1)c1ccc2c(c1)OCO2	-1.0	-18%	12	2	-6
CC(C)CCNC(=O)C(c1ccncc1)N(Cc1cccs1)C(=O)Cn1nnc(-c2ccc(F)cc2)n1 (stereo not drawn)	1.5	16%	-5	-16	4
Cc1cc(C2(O)C(=O)Nc3ccccc32)ccc1F (stereo not drawn)	1.0	nt	nt	nt	5
O=C(c1cc(S(=O)(=O)N2CCOCC2)c(Cl)cc1Cl)N1CCCCC1CO (stereo not drawn)	-0.4	-3%	nt	nt	-2
COc1ccc(OCCCC(=O)Nc2nncs2)cc1	-2.9	1%	12	6	-1	Arbovirus inh repeat=3
Cc1ccc(OCCCCn2cnc3ccccc32)cc1	3.9	16%	nt	13	83
C/C(=N/NC(=O)CNC(=O)Cc1ccccc1)c1ccco1	0.5	1%	-11	10	-2
CC(=O)C1(c2ccccc2)CCN(C(=O)C2CCC(=O)N(CCc3cccc(F)c3)C2)CC1 (stereo not drawn)	-0.4	nt	nt	nt	-6
Cc1ccc(S(=O)(=O)N2CCN(C(=O)C3CCN(C(=O)c4ccc(F)cc4)CC3)CC2)c(C)c1	0.6	nt	nt	nt	-17
CCn1c(O)c(N=NC(=O)c2cccs2)c2ccccc21	0.6	9%	nt	-6	5
Cc1cc(NC(=O)Nc2cccc(Cl)c2)n(-c2ccccc2)n1	-5.6	nt	nt	nt	-10
Cc1cc[n+]2c3c(cccc13)CCC2	-0.8	-5%	8	-2	-12
COCCOc1ccc(C(F)(F)F)cc1NC(=O)COC(=O)c1cc([N+](=O)[O-])ccc1N1CCOCC1	0.9	nt	nt	nt	35
O=C(NCc1ccc(Cl)cc1)C(=O)c1cn(CC(=O)N2CCOCC2)c2ccccc12	-0.7	nt	nt	nt	0
COc1ccc(Nc2ncnc3c2cnn3Cc2ccccc2)cc1	4.1	10%	-3	-21	11	Arbovirus inh repeat=-7
CC(=O)c1ccc(OC(=O)c2ccc(-n3nc(C)cc3C)cc2)cc1	2.5	-4%	nt	2	67
N/C(=N\O)c1ccc(NC(=O)c2cccs2)cc1	-1.5	-3%	-30	-8	-1
COc1ccc(NC(=O)C2(N(C(=O)Cn3nnnc3N)c3ccc(OC)cc3)CCCCC2)cc1	-1.2	nt	nt	nt	5
O=C(c1ccco1)N1CCN(c2nc3ccccc3n3nnnc23)CC1	-3.7	-9%	-47	3	-4
O=C(NNC(=O)c1ccccc1OCc1ccc(F)cc1)c1ccccc1O	8.4	nt	nt	nt	9
Nc1nc2n(n1)C(c1cccs1)CC(c1ccc(F)cc1)N2 (stereo not drawn)	-0.7	-9%	5	3	7
COC(=O)COc1ccc(S(=O)(=O)NCc2ccco2)cc1	3.0	-11%	-17	-1	4
BrC(=C\c1ccccc1)/C=N/n1cnnc1	3.7	?	nt	-27	nt
Cc1cc(C)cc(-n2ccn(CC(=O)NCCc3ccccc3)c(=O)c2=O)c1	-2.2	nt	nt	nt	4
CCN(CC(=O)Nc1cc(Cl)ccc1C)C(=O)Cn1c(=O)cnc2ccccc21	-0.6	nt	nt	nt	-4
The results go on:
SMILES	RecA intein inh	Mtb growth	YopH PTP inh	Arbovirus inh	Mtb betalactam	others
O=C(O)c1sc2ncccc2c1OCc1ccccc1	-1.4	-2%	nt	0	0
C[n+]1c2n(c3ccccc31)N=C(c1ccc(Cl)cc1)CS2	-0.1	-3%	-19	11	-8
O=C(COc1ccccc1[N+](=O)[O-])N/N=C/c1ccc(O)c([N+](=O)[O-])c1	-0.1	-1%	nt	-21	25
Cc1ccnc(SCc2cc(=O)c(OC(=O)c3ccc(Cl)c([N+](=O)[O-])c3)co2)n1	2.9	2%	-1	5	4
Cn1nccc1-c1cc(Cl)cc(Cl)c1O	0.0	73%	nt	nt	85
CCCCNC(=O)C1CCCN(S(=O)(=O)CC)C1 (stereo not drawn)	0.5	8%	nt	2	-1
O=C(O)c1ccc(NC(CSCc2ccccc2F)C(=O)O)c([N+](=O)[O-])c1 (stereo not drawn)	1.2	-12%	-39	3	4
CN(CC(=O)Nc1ccccc1Br)C(=O)c1cc(S(=O)(=O)N(C)C)ccc1N1CCCC1	13	nt	nt	nt	-5
CCC(C)C1(CC)C(=O)NC(=O)N=C1N (stereo not drawn)	0.3	-4%	-20	8	-1
Cc1cc(SCC(=O)c2ccc3c(c2)OCO3)nc2ccccc12	-1.3	-6%	-16	-3	nt
C=CCN(CC=C)Cc1c(O)ccc2c(=O)c(-c3ccccc3)coc12	-1.1	nt	nt	nt	-7
CCC(C)c1ccccc1OCC(=O)NN1C(=O)c2ccccc2C1=O (stereo not drawn)	1.9	nt	nt	nt	5
COc1ccc2c(-c3ccccc3)cc(SCC(=O)N(C)C)nc2c1	5.5	1%	nt	-12	67
CN1CCN(c2ccccc2NC(=O)c2ccc([N+](=O)[O-])cc2Cl)CC1	5.2	-2%	nt	4	-6
O=C(c1cccc(F)c1F)N1CCCC1	1.1	-2%	28	13	-10

Compound activity as filed in PubChem.
